Bioassay records: PubChem, several laboratories
Rce1 inh: inhibitors of yeast Ras-converting enzyme | Q03530 | yeast membranes, quenched prenylated peptide cleavage fluorescence | calls only | 290,000 compounds, 0.27% hits | AID 2563;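 active means fall in fluorescence gain of 50% or more versus controls, with final raw signal at or below 3038400; inconclusive means same 50% fall but final raw signal above 3038400; inactive means fall in fluorescence gain under 50%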;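 further: plate controls were neutral control wells for no effect and wells lacking membranes for full effect; tested at 10 µM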
UUG fidelity: modulators of start codon recognition fidelity in yeast; S. cerevisiae UUG-firefly luciferase reporter, luminescence/redox ratio; activity score, % at 18.7 µM; 350,000 compounds, 0.13% hits; AID 602363;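 active means replicate mean at a twofold rise or more, about +100% in these data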;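 further: firefly luciferase made from a UUG start codon reports start codon fidelity; reporter light over untreated wells divided by growth signal over untreated wells; some hits fall short of that in this replicate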
CSC inhib: blocks cancer stem cells. cancer stem cell-like cells viability, luminescence. inhibition, % at 7.5 µM. 300,000 compounds, 1.1% hits. AID 2717;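 active means mean at 75% or more and at least half the replicates too; inconclusive means mean and replicates disagree; tested in HMLE shEcad cells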;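 further: 0% = median of negative and 100% = median of positive control wells; the first replicate is given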
Env fusion inh: inhibitors of HIV Env-mediated cell fusion | HeLa-JRFL Env/CEM21 cell fusion, luciferase | inhibition, % at 12.3 µM | 360,000 compounds, 1.1% hits | AID 651610;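 active means mean replicate inhibition score of at least 50 and every replicate individually at or above 50; inconclusive means only one of the two criteria met; inactive means mean below 50 and not all replicates reaching 50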;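 further: 0% = plate neutral controls and 100% = maraviroc near 300 nM; one replicate is shown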
eIF4H FP inh: inhibitors of RNA binding by human eIF4H. Q15056. AID 2012. inhibition, % at 35 µM. 290,000 compounds, 0.94% hits. eIF4H fluorescence polarization binding assay;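 active means 50% or more with normal probe brightness, or confirmed in later tests; inconclusive means above 50% with abnormal brightness, or retests that disagree; inactive means below 50% or failed in later tests; about a fifth of its hits are not listed in these tables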;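 further: calls also rest on retests at 20 µM and on dose response follow-up; 0% = protein and probe with vehicle and 100% = probe without protein; strong numbers were not always called active; many hits fall short of the cut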
PABP polyA inh: blocks human PABP binding to poly(A) RNA. inhibition, % at 35 µM. P11940. 290,000 compounds, 1% hits. fluorescence polarization;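 active means 50% or more with normal probe brightness, or confirmed in later tests; inconclusive means above 50% with abnormal brightness, or retests that disagree; inactive means below 50% or failed in later tests; about a fifth of its hits are not listed in these tables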;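 further: calls also rest on retests at 20 µM and on dose response follow-up; controls were probe without protein and protein plus probe with vehicle; some compounds called inactive have numbers as strong as hits; many hits fall short of the cut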
Target sequence (P11940 whole entry, looked up): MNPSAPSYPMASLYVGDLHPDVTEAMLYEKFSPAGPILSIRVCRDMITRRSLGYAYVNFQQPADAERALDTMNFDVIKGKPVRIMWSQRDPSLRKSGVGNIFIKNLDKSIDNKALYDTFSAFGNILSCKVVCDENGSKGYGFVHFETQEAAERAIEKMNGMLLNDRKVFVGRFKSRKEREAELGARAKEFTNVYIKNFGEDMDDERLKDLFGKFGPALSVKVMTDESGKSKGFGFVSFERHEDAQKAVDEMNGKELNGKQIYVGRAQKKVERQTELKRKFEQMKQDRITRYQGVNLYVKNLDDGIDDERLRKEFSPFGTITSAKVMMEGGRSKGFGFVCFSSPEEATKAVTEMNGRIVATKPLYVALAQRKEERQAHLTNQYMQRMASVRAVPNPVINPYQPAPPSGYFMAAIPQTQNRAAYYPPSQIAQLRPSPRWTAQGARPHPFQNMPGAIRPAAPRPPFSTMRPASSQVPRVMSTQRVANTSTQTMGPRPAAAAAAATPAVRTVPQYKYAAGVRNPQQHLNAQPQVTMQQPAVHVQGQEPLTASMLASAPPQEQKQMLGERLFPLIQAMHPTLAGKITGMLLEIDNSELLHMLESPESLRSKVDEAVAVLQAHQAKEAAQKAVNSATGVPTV
MT1-MMP act inh: MT1-MMP (human) activation inhibition. P50281. HT1080 RFP-PRO-GFP cells, GFP/RFP ratio fluorescence, overnight; percent of plate control window, DMSO zero. GFP/RFP ratio change, % at 20 µM. 360,000 compounds, 0.061% hits. AID 651647;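 active means GFP/RFP ratio change of at least 30% with cell ATP level not reduced by more than half and red fluorescence within 50% of control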; further: strong numbers were not always called active
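Material – HT1080 RFP-PRO-GFP cells · Control set – DMSO wells and RFP-L50D-GFP cells · Incubation – overnight cell settling, then overnight compound exposure, 37 °C, 5% CO2 · Compound dosing – single-point 20 µM compound, 1% DMSO · Read-out – GFP/RFP fluorescence ratio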
MT1-MMP act inh RFP: second read-out of MT1-MMP act inh, no call of its own (marks repeat the call); RFP signal change, %; measured here: RFP expression control read;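 0 = vehicle wells; hits needed this value within 50% of zero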
An asterisk follows results filed as active; i = inactive; ? = inconclusive; nt = no result given; & = joins results of further samples.

SMILES	Rce1 inh	UUG fidelity	CSC inhib	Env fusion inh	eIF4H FP inh	PABP polyA inh	MT1-MMP act inh	MT1-MMP act inh RFP
Cc1c(NC(=S)N/N=C/c2ccc([N+](=O)[O-])cc2O)c(=O)n(-c2ccccc2)n1C	i	nt	16	12	13	-1	1	2
Cn1c(SCC(=O)CC(=O)Nc2ccccc2)nnc1-c1ccc(O)cc1	nt	-13	13	nt	-5	9	3	2
O=C(NCCS(=O)(=O)NC1CCCC1)c1ccccc1	i	-22	11	-20	nt	nt	2	5
O=C(Nc1ccc(Cl)cc1)N1CCCN(Cc2ccccc2F)C1	i	6	8	27	0	-3	2	0
O=C(CN1C(=O)NC2(CCCc3ccccc32)C1=O)N1CCN(c2cccc(C(F)(F)F)c2)CC1 (centres undefined)	nt	3	-14	nt	nt	nt	7	-8
COc1ccc(/C=N/NC(=O)c2ccc(F)cc2)cc1CN1CCc2cc(OC)c(OC)cc2C1C (centres undefined)	i	0	-2	5	-9	-5	3	1
CCc1ccc(C(=O)NC(=S)Nc2ccc(N3CCOCC3)cc2)cc1	i	nt	61	10	-1	2	1	-5
COc1cc(C)ccc1OCCCCNCc1ccccc1	i	-7	-19	9	1	-4	0	3
COc1ccc(N2CCN(/C(=N\S(=O)(=O)c3ccc(C)cc3)Nc3nc(C)cc(C)n3)CC2)cc1	i	0	-14	-77	-9	1	4	3
CCN(CC)CCCN(C(=O)c1ccc(F)cc1)c1nc(-c2ccc(OC)cc2)cs1	i	7	8	4	-12	2	-3	-1
CN(C(=O)c1cccc(NC(=O)Cc2ccc(NC(=O)C3CCCN(C(=O)C4CCCCC4)C3)cc2)c1)C1CCCC1 (centres undefined)	nt	7	nt	2	nt	nt	4	-12
COc1ccc(CN2CC(C(=O)NCCCN3CCCCCC3)CC2=O)cc1 (centres undefined)	i	11	0	nt	20	16	-5	-4
O=C(OCc1cn([C@H]2C[C@H](c3ccccc3)N(Cc3cccs3)C[C@@H]2O)nn1)c1ccccc1	nt	-14	nt	-64	nt	nt	2	5
C[C@H]1CN([C@@H](C)CO)C(=O)CCCn2nncc2CO[C@H]1CN(C)C(=O)c1ccc2ccn(C)c2c1	nt	-4	nt	-1	nt	nt	8	4
NC(=O)C1CCN(C(=O)c2ccc3c(=O)n(Cc4ccco4)c(SCC(=O)c4ccccc4)nc3c2)CC1	i	-12	-1	9	-6	0	-2	0
Cc1ccc(CSc2ncnc3ccccc23)cc1	i	-17	2	3	-4	5	-6	-13
CCC(=O)Nc1cc2c3c(c1)CCN3C(=O)CC2	i	-17	-6	3	0	6	0	3
COc1cccc(/C=C/C(=O)OCC(=O)N2CCN(S(=O)(=O)c3ccc(Cl)cc3)CC2)c1	i	-5	-6	1	-9	2	-6	-2
CCn1c(N)c(C(N)=O)sc1=S	i	-10	-12	nt	?	?	-1	6
S=C(NCc1ccc(Cl)cc1)Nc1ccccc1	i	-24	-10	-15	-9	-4	4	0
O=C(O)c1ccc(-n2cccc2/C=C2/SC(=O)N(CC(=O)N3CCCC3)C2=O)cc1	i	-10	-1	-4	84*	80*	-5	3
O=C(NOCc1ccccc1)c1ccccc1	i	-33	0	-12	nt	nt	4	4
CCOc1ccc(C(=O)NCC(=O)N2CCN(c3ccc(C(F)(F)F)cn3)CC2)cc1	nt	-12	6	nt	nt	nt	0	-4
CCOC(=O)C1CCN(Cc2c(O)c3ccccc3oc2=O)CC1	i	nt	nt	7	-1	-3	2	4
Cc1ccc(-c2nnn(CC(=O)N(CC(=O)NC3CCCCC3)c3cccc(F)c3)n2)o1	i	-6	nt	-9	-2	-2	3	3

Continuation.
SMILES	Rce1 inh	UUG fidelity	CSC inhib	Env fusion inh	eIF4H FP inh	PABP polyA inh	MT1-MMP act inh	MT1-MMP act inh RFP
CC1CCCC(NC(=O)Cn2cc(C(F)(F)F)cc(Cl)c2=O)C1C (centres undefined)	nt	-9	4	4	nt	nt	-4	-1
CC1=C(C(=O)N(C(C)C)C(C)C)CC(CC(=O)NC2CC2)C(=O)N1CCCN1CCCC1=O (centres undefined)	nt	-9	nt	7	nt	nt	2	6
O=Cc1cc2ccccc2nc1SCc1ccc(Cl)c(Cl)c1	i	nt	94*	nt	6	-5	10	-8
CCOc1ccccc1C(c1c(C)n(C)n(-c2ccccc2)c1=O)c1c(C)n(C)n(-c2ccccc2)c1=O	i	13	-1	-35	1	8	-1	1
O=C(Nc1ccc(F)cc1)c1ccc(C(=O)N2CCCC(O)C2)cc1 (centres undefined)	i	-8	-4	-12	nt	nt	-5	1
CCN(CC(=O)Nc1ccc(NC(C)=O)cc1)C(=O)COc1ccccc1Cc1ccccc1	i	13	nt	-22	-1	-2	0	-4
CC[C@]12c3[nH]c4cc(CCC(=O)N(C)C)ccc4c3CCN1C(=O)[C@@H](CC(=O)NCCCN(C)C)C[C@@H]2C(=O)N1CCN(C(=O)C2CC2)CC1	nt	-4	nt	-58	nt	nt	3	2
COc1cc(/C=C(/C#N)C(=O)Nc2ccc(C)cc2)ccc1Oc1nc(Cl)ncc1F	i	nt	-8	-16	4	15	0	-4
COc1ccc(-n2nc3c(N4CCC(C(=O)NCc5cccc(C)c5)CC4)nnc(C)c3c2C)cc1	i	-4	-15	12	-24	-34	-1	-1
CCN=C1S/C(=C\c2cc(Cl)c(OC)c(OC)c2)C(=O)N1CC	i	-16	10	18	-5	-2	7	-3
O=C(O)c1ccc(N/N=C/c2ccc3nccnc3c2)cc1	i	nt	27	75*	-7	-6	-25	0
CN(C)c1nc(NCc2ccccc2)nc(N/N=C/c2ccc(Br)cc2)n1	nt	nt	5	-3	-5	0	1	4
COc1ccc(-c2cc(C(=O)Nc3ccc4c(c3)OCO4)no2)cc1	i	-9	23	13	1	-10	9	7
COc1nnc(-c2ccc(C)c(S(N)(=O)=O)c2)c2ccccc12	i	-7	-9	15	-4	-4	3	4
CCc1nc2ccc(C(=O)N(C)Cc3ccco3)cn2c1N(CC)C(=O)NCCc1ccccc1	nt	-18	nt	-9	nt	nt	2	2
O=C1c2ccccc2C(=O)N1CCCc1nc(-c2ccc(Cl)cc2)no1	i	-10	-7	5	4	-7	2	-1
COc1cc(/C=C/c2ccc(O)cc2)cc(OC)c1	i	4	1	nt	4	1	4	2
CC(C)C(NC(=O)c1ccccc1)C(=O)OCc1cc([N+](=O)[O-])cc2c1OCOC2 (centres undefined)	i	nt	-10	25	-19	-8	1	0
Cc1ccc2nc(C)c(C)nc2c1N	i	-18	0	nt	-1	2	-2	5
C[C@@H]1CN([C@@H](C)CO)C(=O)CCCn2nncc2CO[C@H]1CN(C)C(=O)NC1CCCCC1	nt	-4&-5&-10	nt	1	nt	nt	-1	1
Cc1cc(C(=O)NCc2cccs2)ccc1[N+](=O)[O-]	i	nt	-38	-34	-10	3	0	-5
COc1ccccc1N1CCN(C(=O)c2cc(-c3cccs3)on2)CC1	i	14	13	11	-8	-2	-1	-1
CCOC(=O)c1c(C)[nH]c(C(=O)OCC(=O)Nc2sc(C(=O)N(C)C)c(C)c2C(=O)OCC)c1C	i	-3	2	12	nt	nt	0	-8
CSc1oc(-c2ccc(F)cc2)nc1S(=O)(=O)c1ccccc1	i	-12	nt	15	-3	-8	-5	0
O=C(CSC1=NCCS1)N1CCN(c2ccccc2)CC1	i	nt	-2	nt	3	-3	3	-2

Compound profiles, as listed above:
Profile of CCN(CC)CCCN(C(=O)c1ccc(F)cc1)c1nc(-c2ccc(OC)cc2)cs1 : Rce1 inh = i; UUG fidelity = 7; CSC inhib = 8; Env fusion inh = 4; eIF4H FP inh = -12; PABP polyA inh = 2; MT1-MMP act inh = -3; MT1-MMP act inh RFP = -1
Profile of CCC(=O)Nc1cc2c3c(c1)CCN3C(=O)CC2 : Rce1 inh = i; UUG fidelity = -17; CSC inhib = -6; Env fusion inh = 3; eIF4H FP inh = 0; PABP polyA inh = 6; MT1-MMP act inh = 0; MT1-MMP act inh RFP = 3

Later entries:
SMILES	Rce1 inh	UUG fidelity	CSC inhib	Env fusion inh	eIF4H FP inh	PABP polyA inh	MT1-MMP act inh	MT1-MMP act inh RFP
CCOC(=O)c1[nH]c2ccccc2c1NC(C)=O	i	-2	3	17	-4	-1	2	4
COC(=O)c1ccc(NC(=S)NC(=O)c2cc(-c3ccccc3)nc3ccccc23)cc1	i	-9	nt	-17	-1	0	0	-1
O=C(NCc1cccnc1)C(=O)NCC(c1ccco1)N1CCN(c2ccccc2F)CC1 (centres undefined)	i	nt	-6	-56	-11	2	-1	-4
N#CCCC(CCC#N)C1=NCCc2ccccc21	i	1	-2	10	-2	-2	15	6
Cc1ccc(C)c(NS(=O)(=O)c2ccc3[nH]c(=O)[nH]c3c2)c1	i	3	-8	-15	5	11	2	-1
O=S(=O)(c1ccc(Cl)cc1)n1ccc2cccnc21	i	-17	-8	4	6	7	-6	-1
O=C(O)CCC(=O)N(Cc1cccs1)Cc1cccs1	i	-10	-4	-56	34	6	6	5
CCOC(=O)/C(C)=C1\NC(C)(C)Cc2ccccc21	i	-15	nt	-18	13	-2	-4	-2
Cc1cc(N)n(-c2ccc(Oc3ccccc3)c(S(=O)(=O)O)c2)n1	i	nt	nt	-4	4	-4	2	4
Cc1ccc(C(=O)N2CCN(C)CC2)cc1S(=O)(=O)N1CCCCC1	i	11	nt	nt	-2	17	1	1
CCN1CCN(Cc2ccc(OC)c(OCc3ccccc3)c2)CC1	i	-5	-3	6	-6	14	-2	1
O=C(Nc1nnc(Cc2ccccc2)s1)c1ccccc1	i	-11	-1	-23	-2	6	3	2
O=C(NCC(=O)N(CC1CCCO1)C(C(=O)NC1CCCCC1)c1ccccc1)c1ccco1 (centres undefined)	nt	1	-5	7	-4	3	-1	4
Cc1nc(COc2cc3oc(=O)cc(C)c3cc2Cl)cs1	i	-13	0	-17	4	-11	8	3
O=C(COC(=O)c1ccccn1)Nc1nc(-c2ccccc2)cs1	i	-32	-5	-31	-8	3	4	5
COc1ccc(NC(=O)N2CCC(O)(c3cccnc3)CC2)c(OC)c1	i	-15	-17	nt	-4	0	-4	2
O=C(/C=C\NCC(=O)c1ccccc1)c1ccccc1	i	-16	0	-80	5	-4	-9	1
O=C(Nc1ccc(Br)c(C(F)(F)F)c1)c1ccc(C(F)(F)F)cc1	i	-7	110*	43	2	5	-18	-37
COc1ccc(CCNC(=O)CCNC(=O)c2ccco2)cc1	i	-19	-5	-9	-8	18	-1	4
CCOC(=O)C1=C(CSc2nc(-c3ccccc3)ccc2C#N)OC(N)=C(C#N)C1c1ccc(OC)cc1 (centres undefined)	i	7	-6	nt	?	?	-42	12
c1cc(-c2ccsc2)n2ccnc2c1	nt	-17	nt	-15	nt	nt	-5	-1
CCN(CC(=O)Nc1ccc2c(c1)OCCO2)C(=O)c1ccc(S(=O)(=O)N(C)C)cc1	i	3	3	nt	nt	nt	1	5
CCc1cccc2c(C(=O)C(NCCCOC)c3ccccc3)c[nH]c12 (centres undefined)	i	-14	7	-7	-9	-2	2	2
CCN(CCCNC(=O)C1CCN(S(=O)(=O)c2cccc3nonc23)CC1)Cc1ccccc1	i	-7	-14	nt	-2	8	-1	2
CC(=O)c1ccc(N2CCN(C(=O)c3ccc(-c4ccccc4)cc3)CC2)cc1	i	1	-15	14	6	-2	2	-6
Cc1cscc1NC(=O)/C=C/C(=O)O	i	-23	-10	-56	-3	13	0	4
O=C(CNc1ccc(C(F)(F)F)cc1[N+](=O)[O-])OCC(=O)c1ccccc1	i	-25	-14	nt	-2	-5	6	4
CCCNC(=O)Cn1cc(S(=O)(=O)N2CCCC2)c(S(=O)(=O)N2CCCC2)c1	i	-21	-14	-1	7	-1	0	3
COc1ccc(CNc2ncc(-c3cccc([N+](=O)[O-])c3)n2C)c(OC)c1OC	i	-11	-7	-10	0	9	4	-1

An unsorted share of the library; 3% or so of the library scored in one or more.
